Compound activity (PubChem)
NS1 function inh – inhibitors of influenza NS1 protein function; S. cerevisiae slowed by influenza A NS1, growth recovery by OD600; Potency, µM (titrated, usually from 46.1 µM), for inactives: at the highest dose activity, positive = more growth; hit rate 0.4% among 270,000; AID 2326; active means well fitted rising curve with a large enough effect; inconclusive means small, poorly fitted or top-dose-only effect; inactive means no such curve, though single readings can be large or run the other way; further: nearly all actives have a fitted effect of over 50% in size
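OD600 was taken as the measure of yeast growth restored by compound in an NS1-expressing S. cerevisiae strain. Cells had been washed out of glucose medium and diluted 1:100 into galactose -URA medium, pH 6.0.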
Cruzain noTriton – inhibitors of Trypanosoma cruzi cruzain without detergent; AID 1476; Potency, µM, without a hit: max response, negative = inhibition, actives largely listed as inhibitors; purified cruzain, Z-FR-AMC fluorescence, no detergent; hit rate 2.3% among 200,000;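 further: plate controls were enzyme without inhibitor for no effect and buffer without enzyme for full effect; nearly all actives have a fitted effect of over 40% in size; top concentration of the series not given in the record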
Target sequence (P25779 123-467 limits assumed): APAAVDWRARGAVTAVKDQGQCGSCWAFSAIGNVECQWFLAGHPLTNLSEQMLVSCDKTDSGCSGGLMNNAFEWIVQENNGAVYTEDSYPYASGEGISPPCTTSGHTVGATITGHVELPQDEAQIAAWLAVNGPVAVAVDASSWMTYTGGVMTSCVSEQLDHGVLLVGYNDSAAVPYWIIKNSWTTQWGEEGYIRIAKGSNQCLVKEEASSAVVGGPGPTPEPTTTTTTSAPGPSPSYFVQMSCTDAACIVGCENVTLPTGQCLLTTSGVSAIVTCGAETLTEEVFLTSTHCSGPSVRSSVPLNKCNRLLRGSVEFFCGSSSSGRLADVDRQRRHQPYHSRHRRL
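Purified cruzain at 1.5 nM, pre-incubated 15 min with compound at room temperature in 100 mM sodium acetate pH 5.5, 5 mM DTT, 0.00005% Triton X-100. Reaction started with 2 uM Z-FR-AMC; AMC fluorescence increase over 60 s gives rate.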
Cruzain inh Det – blocks cruzain activity in presence of Triton detergent; purified cruzain, Z-FR-AMC fluorescence, 0.01% Triton; P25779; hit rate 0.43% among 200,000; Potency, µM, for inactives: max response, negative = inhibition, usual class: inhibitors;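 further: plate controls were neutral wells for no effect and buffer without enzyme for full effect; nearly all actives have a fitted effect of over 40% in size; top concentration of the series not given in the record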
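Purified cruzain (1.5 nM final) was preincubated with compounds for 15 min at room temperature in 100 mM sodium acetate pH 5.5, 5 mM DTT, 0.01% Triton X-100. Reaction started with 2 uM Z-FR-AMC; AMC fluorescence change over 60 s gave activity.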
StopGo reporter – FMDV 2A StopGo reporter, luciferase signal. AID 1159524. human cells with a luciferase reporter of 2A StopGo recoding; control for the full effect not named in the record. hit rate 1.2% among 410,000. Potency, µM (series often up to 57.9 µM), inactives show top-dose signal change, negative = less light; active = well fitted falling curve with a large enough effect; inconclusive = small, poorly fitted or top-dose-only effect; inactive = no such curve, though single readings can be large or run the other way; tested in HEK293T cells; further: on the % scale 0 is the no-effect control and ±100 the full control effect; nearly all actives have a fitted effect of over 45% in size; luciferase light after 4 h
Marburg entry inh – blocks Marburg virus binding to or entry into cells; Marburg virus pseudotyped entry inhibition, cell reporter; control for the full effect not named in the record; about a third of the inactives were read at about 46 µM; Potency, µM (doses to about 37.8 µM), for the others: at the highest dose activity change, negative = inhibition, most hits filed as inhibitors; hit rate 1.8% among 300,000; AID 540276; active = well fitted inhibition curve with a large enough effect; inconclusive = small, poorly fitted or top-dose-only effect, or effect the other way; inactive = flat fitted curve, though single readings scatter; tested in HEK293 cells; about a fifth of its hits are not listed in these tables; further: on the % scale 0 is the no-effect control and ±100 the full control effect; luciferase read-out
SARS PLP yeast – inhibitors of SARS-CoV papain-like protease in yeast; S. cerevisiae expressing SARS-CoV PLpro, growth rescue; control for the full effect not named in the record; Potency, µM (top dose mostly 32.9 µM), inactives show at the top dose activity, positive = growth rescue; hit rate 0.19% among 330,000; AID 485353; active means well fitted rising curve with a large enough effect; inconclusive means small, poorly fitted or top-dose-only effect; inactive means no such curve, though single readings can be large or run the other way; further: 0% is about no effect; nearly all actives have a fitted effect of over 55% in size; growth read by luminescence after 48 h
Lassa entry inh – Lassa virus entry inhibition. Potency, µM (top dose mostly 37.9 µM), for the others: top-dose activity change, negative = inhibition, most hits filed as inhibitors. Lassa virus pseudotype entry inhibition, cell reporter; control for the full effect not named in the record. hit rate 1.2% among 300,000. AID 540256; active means well fitted inhibition curve with a large enough effect; inconclusive means small, poorly fitted or top-dose-only effect, or effect the other way; inactive means flat fitted curve, though single readings scatter; tested in HEK293 cells; further: on the % scale 0 is the no-effect control and ±100 the full control effect; nearly all actives have a fitted effect of over 50% in size; luciferase read-out
RE007 growth inh – less growth of the S. pombe RE007 Vpr strain. S. pombe RE007 Vpr strain, BacTiter-Glo ATP luminescence, 24 h; control for the full effect not named in the record. Potency, µM (titrated, usually from 92.2 µM), for the others: at the highest dose activity change, negative = less growth. hit rate 0.21% among 360,000; active = well fitted falling curve with a large enough effect; inconclusive = small, poorly fitted or top-dose-only effect; inactive = no such curve, though single readings can be large or run the other way;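 further: on the % scale 0 is the no-effect control and ±100 the full control effect; nearly all actives have a fitted effect of over 50% in size; the assay follows cell death caused by Vpr and the record does not say whether a fall means rescue or toxicity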
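Fission yeast RE007 carrying one integrated HIV-1 vpr copy, seeded at OD 0.01 in PMG+AL medium with 23 nL pinned compound. Grown 24 h at 30 degrees; viability read by BacTiter-Glo luminescence after 5 min.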
* marks the source's active call; other numbers are inactive results; ? = inconclusive; · = not tested or not shown; & = joins results of further samples; [ ] = dose if it differs, or a comment. Unless noted, the call rests on the fitted dose curve; in most records, active means well fitted curve in the direction sought with a large enough effect; inconclusive means small, poorly fitted or top-dose-only effect, or another doubt; inactive means no such curve, though single readings can be large; an effect the other way counts as inactive or inconclusive. Potency means the concentration at half of the fitted maximal effect.

canonical_smiles,NS1 function inh,Cruzain noTriton,Cruzain inh Det,StopGo reporter,Marburg entry inh,SARS PLP yeast,Lassa entry inh,RE007 growth inh
Cc1ccc(NC(=O)CSc2nc(C3CCCC3)nc3c2c(=O)n(C)c(=O)n3C)c(C)c1,·,2%,2.6%,-12%,·,·,1%[46.1 µM],·
Cc1nc2nc(NCc3ccc(Cl)cc3)[nH]n2c(=O)c1Cc1ccccc1,·,-8%,-0.2%,-18%,9%[46.1 µM],·,-22%[46.1 µM],·
C=CCn1cc(C(=O)N2CCN(C)CC2)c(=O)c2cc(S(=O)(=O)N3CCCC3)ccc21,-3%,-12%,3.1%,-14%,·,-1%,·,9%
COc1cc(SC)ccc1C(=O)N1CC(C)OC(C)C1 (stereo not drawn),-3%,·,·,0%,-13%[46.1 µM],0%,-11%,5%
Cc1noc(C)c1COc1ccc(C(=O)OCC(=O)NCCN2C(=O)CSC2=O)cc1,·,·,·,2%,1%[46.1 µM],0%,5%,7%
N#CC1CN(Cc2ccccc2)CN(Cc2ccccc2)C1,-6%,·,·,-26%,?,0%,-20%[46.1 µM],-8%
CC(C)c1cc(C(=O)N/N=C/c2cccnc2)cs1,13%,-7%,-2.3%,44%[activator],0%,-17%,5%,13%
O=C(Nc1cccc(C(=O)N2CCOCC2)c1)NC1CCCCC1,-3%,2%,5.8%,5%,?,-1%,0%,0%
Cc1cccc(C)c1NC(=O)CNCC(=O)N(C)C,-3%,·,·,-10%,0%[46.1 µM],1%,·,3%
Clc1ccc(CN2CCSCC2)c(Cl)c1,0%,·,·,-21%,10%,-1%,6%,-14%
CCCCn1c2c(c3ccccc31)CCc1nonc1-2,-63%,1%,-5.0%,-21%,-10%,-49%,10%,-10%
COc1ccccc1NS(=O)(=O)c1ccc(OC)c([N+](=O)[O-])c1,3%,·,·,19%,-3%[46.1 µM],0%,4%,4%
C=CCOC(=O)CCP(=O)(CCC(=O)OCC=C)c1ccccc1,3%,-11%,5.7%,-13%,3%[46.1 µM],1%,11%,14%
COc1ccc(Cn2ccnc2SCC(=O)Nc2nnc(C)s2)cc1,2%,2%,-0.6%,23%&1%,1%&1%[46.1 µM],-5%,6%&13%[46.1 µM],-19%
CC(C)CN1C(=O)C(=O)N(CC(=O)NC2CCCc3ccccc32)C1=O (stereo not drawn),·,·,·,43%[activator],19%[46.1 µM],1%,-20%[46.1 µM],40%
O=C(COc1ccccc1)Nc1ccc(S(=O)(=O)N2CCCCCC2)cc1,-1%,-3%,0.9%,?,6%,-1%,?,0%
CCCOC(c1ccccc1)(c1ccc(C(F)(F)F)cc1)C(Oc1nc(C)cc(C)n1)C(=O)O (stereo not drawn),?,·,·,-20%,·,0%,·,2%
Cc1cccc(Oc2nc3c(c(=O)n(C)c(=O)n3C)n2C)c1,-2%,4%,-0.4%,4%&4%,?,1%,0%&1%[46.1 µM],-6%
C=C(C)CSc1nnc(-c2cc(OC)c(OC)c(OC)c2)n1N,1%,11%,-1.1%,9%,-4%,1%,-2%,2%
COc1cc(C)nc(OCCNC(=O)COc2ccc(Cl)cc2C)n1,-14%,15%,-3.7%,-3%,4%,-1%,2%,4%
COc1cc2nc(NCCc3ccccc3)n3nc(-c4cccnc4)nc3c2cc1OC,·,-8%,1.2%,-9%,2%[46.1 µM],·,·,·
CNC(=O)NCCN1CCCC1=O,-4%,0%,-0.8%,-21%,-14%,3%,0%,6%
COc1ccc(CCOC(=O)c2ccc(NC(=O)CC#N)cc2)cc1,6%,·,·,-11%,·,-4%,·,1%
CC(C)(C)C1CCc2onc(C(=O)Nc3ccc4c(c3)OCO4)c2C1 (stereo not drawn),14%,·,·,-3%,-3%[46.1 µM],0%,?,4%
CC(C)(C)NC(=O)C(c1ccc(F)cc1)N(CC1CCCO1)C(=O)c1csnn1 (stereo not drawn),-1%,·,·,-5%,-10%[46.1 µM],0%,13%[46.1 µM],19%
CSc1ncc(Cl)c(C(=O)Nc2c(C(=O)c3ccc(C)cc3)oc3ccccc23)n1,·,1%,-1.9%,-4%,6%[46.1 µM],·,20%[46.1 µM],·
Cc1ccc(NC(=S)N/N=C/c2ccc([N+](=O)[O-])s2)cc1,-37%,?,-28%,?,?,-127%,18µM*,-27%
CC(=O)N1N=C(N)SC1(C)C,·,·,·,-5%,-3%[14.2 µM],3%,0%,3%
O=C(CSc1ccc(Cl)cc1)N1CCN(c2ccc([N+](=O)[O-])cc2Cl)CC1,-93%,-2%,1.0%,?,?,-16%,-17%,-23%
CC1(C(=O)N(c2ccccc2)C(C(=O)NC2CCCC2)c2ccccn2)CC(=O)N=C2C=CC=CN21 (stereo not drawn),0%,16%,12%,-7%,-1%,3%,0%,2%
O=C(COc1cccc(Cl)c1)Nc1ccccc1N1CCCCC1,·,·,·,?,-21%,0%,-4%,3%
COc1ccc(CCNC(=O)/C=C/c2ccco2)cc1,3%,·,·,3%,·,0%,·,-9%
CCOc1ccc(NC(=O)CN(C)C(=O)CCCc2c[nH]c3ccccc23)cc1OCC,·,·,·,-14%,-17%[46.1 µM],1%,-2%,12%
COc1ccc(COC(=O)c2ccc(Cl)c(S(=O)(=O)N3CCOCC3)c2)cc1F,1%,·,·,?,-21%,-5%,?,-11%
Cc1csc(=O)n1CCC(=O)OCC(=O)c1c(N)n(CC(C)C)c(=O)n(C)c1=O,·,·,·,?,?,-18%,-13%,-17%
Cc1ccc(C(=O)/C=C/c2c(C)nn(-c3ccccc3)c2Cl)cc1,-4%,-10%,-6.1%,-2%,-16%,-11%,?,2%
O=C(CSc1nc2ccccc2c(=O)n1-c1ccccc1F)Nc1ccc2c(c1)CCC2,?,?,-0.8%,-9%,?,8%,?,15%
CC(=O)OC[C@H]1O[C@H](C/C=N/OC[C@@H](O)[C@H]2O[C@@H]3OC(C)(C)O[C@@H]3[C@H]2O)C=C[C@@H]1OC(C)=O,-19%,-5%,0.8%,·,?,5%,1%,·
CC(OC(=O)CNS(=O)(=O)c1ccc(C#N)cc1)C(=O)Nc1cccc(C#N)c1 (stereo not drawn),·,·,·,-18%,16%,3%,-25%,-19%
CCOc1ccc(CCNC(=O)C2CCN(C(=O)c3cc4sccc4n3CC)CC2)cc1OCC,·,?,-6.5%,?,?,·,·,·
COc1ccc(Cl)cc1C=CC=Nc1ccc(S(N)(=O)=O)cc1,·,·,·,-27%,?,·,?,4%
CN(CCc1ccccn1)c1ccccc1,·,·,·,14%,0%[46.1 µM],·,0%[46.1 µM],-30%
O=[N+]([O-])c1ccc(NCCN2CCOCC2)c([N+](=O)[O-])c1,-12%,·,·,-13%,·,-2%,·,0%
N#CC1(NC(=O)COc2cc(F)ccc2[N+](=O)[O-])CCCCC1,·,·,·,-21%,0%,5%,1%,-9%
CCOC(=O)N1CCc2c(sc3ncn(C)c(=O)c23)C1,-2%,·,·,-10%,?,-6%,-1%,3%
COc1ccc(N(C)C(=O)C2CCN(S(=O)(=O)c3cccc4nonc34)CC2)cc1,-6%,·,·,-23%,?,2%,-12%[46.1 µM],3%
O=S(Cc1ccc(Cl)cc1)CC(O)COc1ccc(Cl)cc1 (stereo not drawn),0%,12%,7.9%,0%,-8%,-2%,-15%,2%
O=S(=O)(c1cc(-c2nc3ccccc3s2)ccc1Cl)N1CCOCC1,19%,6%,-1.0%,·,4%,2%,·,·
COc1ccc(CC(=O)NNS(=O)(=O)c2ccccc2)cc1OC,0%,·,·,-2%,-14%[46.1 µM],0%,-30%,-7%
CCC1Sc2ccccc2N(CC(=O)NC2CCCC2)C1=O (stereo not drawn),-5%,8%,-1.2%,·,14%,2%,9%,14%

Next records
canonical_smiles,NS1 function inh,Cruzain noTriton,Cruzain inh Det,StopGo reporter,Marburg entry inh,SARS PLP yeast,Lassa entry inh,RE007 growth inh
Cc1nc([N+](=O)[O-])c(Br)n1CC(=O)c1cccc([N+](=O)[O-])c1,·,·,·,32µM*,?,-2%,8%[46.1 µM],3%
C=CCNC(=O)/C(C#N)=C/c1c(N2CCN(c3ccc(OC)cc3)CC2)nc2c(C)cccn2c1=O,10%,·,·,15%,·,0%,·,-11%
Cc1ccc(-c2ccc(SCC(=O)Nc3ccc4c(c3)OCCO4)nn2)cc1,-2%,28%,-2.8%,-19%,17%,-9%,-11%,7%
Fc1ccccc1N1CCN(c2ncc3c(n2)CCN(Cc2ccc(Br)s2)C3)CC1,·,-3%,1.6%,?,·,·,23%[46.1 µM],·
CC1Cc2ccccc2N1C(=O)CSc1nnc(-c2cccc(Cl)c2)o1 (stereo not drawn),·,15%,-1.1%,-10%,1%[46.1 µM],·,14%[46.1 µM],·
CC(C)c1cc(C(=O)N2CCCC(Nc3ccc(F)cc3)C2)nc(N)n1 (stereo not drawn),17%,·,·,-16%,-16%,-2%,8%,18%
O=C(Nc1ccsn1)c1ccc(Cl)cc1Cl,7%,·,·,56%[activator],·,1%,·,10%
COc1ccccc1N(CC(=O)N1CCCC1)S(=O)(=O)c1ccc(C)cc1,2%,·,·,27%,-5%[46.1 µM],-2%,10%,17%
Cc1ccc(Cl)cc1N1CCN(S(=O)(=O)c2c(C)[nH]c(C)c2C(=O)N2CCCC2)CC1,21%,·,·,-22%,·,?,·,2%
CCc1ccc(C(=O)NNC(=O)C2CC(=O)N(Cc3ccccc3)C2)cc1 (stereo not drawn),·,·,·,-8%,15%[46.1 µM],0%,1%,8%
CCc1nnc(NC(=O)c2oc3cc(C)c(C)cc3c2C)s1,3%,13µM*,-0.6%,25%,-7%,7%,1%,-8%
CSc1nc(Oc2ccc(Cl)cc2)c2sccc2n1,4%,-3%,-7.5%,-18%,-1%,3%,16%,15%
Cc1cccc(Nc2nc(C)nc(N)c2S(=O)(=O)c2ccccc2)c1,·,-2%,-3.0%,7%,?,·,?,·

An unsorted share of the library. Share with any hit: about 4.8%.
